KCNQ2 inh: KCNQ2 potassium channel inhibitors, primary screen, cell-based, CHO-K1, FluxOR thallium flux, B-score (AID 2156); Potassium voltage-gated channel subfamily KQT member 2 (Rattus norvegicus), O88943; 20 min; stronger effect = lower value; only compounds with negative scores are shown here; some inactives read as strong as hits; B-score at 10 µM; 310,000 compounds, 1.1% hits;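 active means fluorescence ratio B-score at most minus 3 library SDs, with starting brightness B-score within 2 library SDs, cut at about -5.5 in these data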
Target sequence (O88943 whole entry, looked up): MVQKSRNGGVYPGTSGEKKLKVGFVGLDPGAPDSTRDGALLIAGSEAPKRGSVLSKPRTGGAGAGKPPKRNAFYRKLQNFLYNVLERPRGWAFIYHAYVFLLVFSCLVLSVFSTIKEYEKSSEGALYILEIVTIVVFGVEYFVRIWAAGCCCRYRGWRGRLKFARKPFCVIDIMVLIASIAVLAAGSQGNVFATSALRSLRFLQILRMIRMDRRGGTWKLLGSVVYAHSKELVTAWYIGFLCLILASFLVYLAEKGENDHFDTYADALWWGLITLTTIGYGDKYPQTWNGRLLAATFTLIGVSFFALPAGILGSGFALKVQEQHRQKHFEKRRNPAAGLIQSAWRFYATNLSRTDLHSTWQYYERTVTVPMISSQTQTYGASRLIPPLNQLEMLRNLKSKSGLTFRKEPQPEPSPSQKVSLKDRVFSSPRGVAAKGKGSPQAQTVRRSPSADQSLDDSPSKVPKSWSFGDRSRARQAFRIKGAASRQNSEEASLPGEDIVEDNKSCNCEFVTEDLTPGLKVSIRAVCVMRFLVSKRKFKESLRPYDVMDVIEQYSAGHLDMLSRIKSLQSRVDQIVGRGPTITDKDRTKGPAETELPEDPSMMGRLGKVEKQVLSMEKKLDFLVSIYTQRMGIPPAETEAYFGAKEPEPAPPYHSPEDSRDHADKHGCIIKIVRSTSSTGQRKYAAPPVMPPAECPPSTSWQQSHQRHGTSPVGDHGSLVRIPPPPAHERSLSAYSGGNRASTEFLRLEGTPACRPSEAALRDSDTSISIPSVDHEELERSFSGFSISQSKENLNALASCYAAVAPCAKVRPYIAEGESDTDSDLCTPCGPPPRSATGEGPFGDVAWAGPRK
KCNQ2 inh baseline: recorded beside KCNQ2 inh, whose call it bears; B-score; measured here: initial fluorescence intensity artifact check;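 brightness before thallium and not channel activity; 0 = typical well and far values either way flag optical interference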
The depositor's hits bear a star; i = inactive. Only part of the results is shown, so the mix of outcomes need not match the whole.

SMILES | KCNQ2 inh | KCNQ2 inh baseline
COc1ccc(/C(N)=N/OC(=O)CSc2ccccc2)cc1OC | -6* | -0.83*
CSc1cccc(NC(=O)C2CCCN2S(=O)(=O)c2ccc(Br)s2)c1 (configuration not stated) | i | 0.1
O=C(CNC(=O)C1CCCCC1)NC1CCCCC1 | i | 1.9
O=c1cc(-c2ccccc2Cl)oc2c(NS(=O)(=O)c3ccccc3C(F)(F)F)ccc(O)c12 | i | 0.25
Cc1nn(CC(=O)NCCc2cccs2)c(=O)c2nn(-c3ccccc3)c(C)c12 | i | 0.5
COc1ccccc1NC(=O)c1ccc2c(c1)C(=O)N(Cc1ccco1)C2=O | i | 0.65
COc1ccc(Cl)cc1NC(=O)C(C)N(C)Cc1ccc(C(F)(F)F)cc1 (configuration not stated) | -6.8* | -0.32*
N#Cc1c(NC(=O)C(=O)NCCCN2CCOCC2)sc2c1CCC2 | i | 0.14
Cc1cc(NC(=O)Cn2cnc3sc(C)c(-c4ccccc4)c3c2=O)no1 | i | 1.9
COc1ccc(-c2cc(C(=O)N/N=C/c3ccc4c(c3)OCO4)c3ccccc3n2)c(OC)c1 | i | -1.1
COc1ccc(-n2c(=O)c3ccccc3n(CC(=O)OCc3ccccc3)c2=O)cc1OC | i | -1.2
CN1CCN(c2ccc(NC(=O)c3sc4ccccc4c3Cl)cc2)CC1 | i | -0.29
CC1CN(S(=O)(=O)c2ccc(C(=O)N(CCCN(C)C)c3nc4c(Cl)cccc4s3)cc2)CC(C)O1 (configuration not stated) | i | 1.4
CC(=O)NC(CC(=O)OCc1ccc([N+](=O)[O-])cc1)c1ccccc1 (configuration not stated) | i | 1.9
O=C(CSc1nccc(=O)[nH]1)N1N=C2/C(=C/c3ccco3)CCCC2C1c1ccco1 (configuration not stated) | i | 0.44

Of the compounds above, two have two or more sulfur atoms.
SMILES | KCNQ2 inh | KCNQ2 inh baseline
CSc1cccc(NC(=O)C2CCCN2S(=O)(=O)c2ccc(Br)s2)c1 (configuration not stated) | i | 0.1
CC1CN(S(=O)(=O)c2ccc(C(=O)N(CCCN(C)C)c3nc4c(Cl)cccc4s3)cc2)CC(C)O1 (configuration not stated) | i | 1.4

Next part
SMILES | KCNQ2 inh | KCNQ2 inh baseline
COc1ccc(/C=C/C(=O)O)cc1COc1ccccc1C | i | -1.1
COc1cc(NC(=O)Nc2cc(C)on2)cc(OC)c1OC | i | 0.04
COc1ccc(C(=O)C2CCCN(C(=O)/C=C/c3ccccn3)C2)c(C)c1 (configuration not stated) | i | -0.54
CCOC(=O)C1CCCN(S(=O)(=O)c2ccc(S(N)(=O)=O)cc2)C1 (configuration not stated) | i | 1.5
Cc1ccc(CC2C(=O)N(c3nc(C)cc(C)n3)C(=O)C2C)cc1 (configuration not stated) | i | 0.9
CC(c1ccccc1)N1CCn2c(nc3cc(NC(=O)c4cccs4)ccc32)C1 (configuration not stated) | i | -1.1
CCn1c(=O)cc(OCC(=O)Nc2cccc(C)n2)c2ccccc21 | i | -0.98
C=C(C)COc1ccc(-c2ncncc2-c2ccccc2OC)c(O)c1 | i | -0.85
O=C(N/N=C/c1cn(-c2ccccc2)nc1-c1ccccc1)c1ccco1 | i | 0.3
CN(CC(=O)Nc1cccc(F)c1)C(=O)/C=C/c1ccc(Br)s1 | i | 0.21
CC(C)(C)NC(=S)NCC1CC1 | i | -1.4
CC(C)C[C@H]1CN=C(Nc2ccccc2)N1CCC1CCCCC1 | i | -0.18
Cc1cc(C)nc(NC2=NCC(=O)N2c2ccc(F)c(Cl)c2)n1 | i | -2.3
c1ccc(C2CSc3ccccc3N2)cc1 (configuration not stated) | i | 1.5
O=C(/C=C/c1c(Cl)cccc1Cl)N1CCN(c2ncccn2)CC1 | i | 2.3

Quoted from the results shown for reference:
SMILES | KCNQ2 inh | KCNQ2 inh baseline
CC(C)C[C@H]1CN=C(Nc2ccccc2)N1CCC1CCCCC1 | i | -0.18
Cc1cc(C)nc(NC2=NCC(=O)N2c2ccc(F)c(Cl)c2)n1 | i | -2.3
c1ccc(C2CSc3ccccc3N2)cc1 (configuration not stated) | i | 1.5
O=C(/C=C/c1c(Cl)cccc1Cl)N1CCN(c2ncccn2)CC1 | i | 2.3

(more compounds)
SMILES | KCNQ2 inh | KCNQ2 inh baseline
CCN1CCN(c2ccc(NC(=O)c3cnccn3)cc2)CC1 | i | -0.18
Cn1c(-c2ccc3c(c2)OCO3)cnc1NCc1ccccc1 | i | -0.05
Clc1ccccc1-c1nc2ccccc2c2nc3ccccc3n12 | i | 0.21
O=C(NC(C(=O)c1ccccc1)N1CCCCC1)c1ccccc1 (configuration not stated) | i | -1.5
CC(C)C(C)NC(=O)COc1ccc(-c2ccccc2)cc1 (configuration not stated) | i | 1.5
O=C(CCc1ccccc1)NC1C2CC3CC(C2)CC1C3 (configuration not stated) | i | -0.54
O=S(=O)([O-])C/C(=C\c1ccc(Cl)cc1)c1cc[n+](CCO)cc1 | i | 0.46
COC(=O)c1ccc(C23CC4(C2)[C@H](CN(Cc2ccc(-c5ccccc5)cc2)[C@@H]4c2ccccc2)C3c2ccccc2)cc1 (some centres not stated) | i | 1.2
CCCCN(C(=O)C1CCC1)c1c(N)n(CCC)c(=O)[nH]c1=O | i | -0.23
CC(C)N(Cc1ccccc1)C(=O)CN1C(=O)NC(Cc2ccccc2)(c2ccccc2)C1=O (configuration not stated) | i | 2.5
CNC(=O)COc1coc(CN2CCN(C(=O)c3ccco3)CC2)cc1=O | i | 0.04
COc1ccc(S(=O)(=O)N(CCCN2CCOCC2)Cc2cccc(OC)c2OC)cc1 | i | 2
Cc1ccc(C)c(N2CCN(C(=O)CCS(=O)(=O)c3ccc4c(c3)NC(=O)C(C)S4)CC2)c1 (configuration not stated) | i | 1.2
Cc1nnc(SCc2cc(=O)[nH]c(/N=C(\N)Nc3ccccc3Sc3ccccc3)n2)s1 | i | 0.34
CCNc1nc(CSc2ccccc2)nc2sc(C)c(C)c12 | i | -0.19
Cn1cc(C(=O)c2ccc(Cl)cc2)cc1-c1nc2ccccc2n1C | i | -1.6
Cc1ccc(N2C(=O)CC(N3CCN(c4ccccn4)CC3)C2=O)cc1 (configuration not stated) | i | -0.62
Cn1c(=O)c2c(nc(Cl)n2Cc2ccc(Cl)c(Cl)c2)n(C)c1=O | i | 2
O=C(CCC(=O)c1ccc(Br)cc1)Nc1cccc(C(F)(F)F)c1 | i | -0.02
COc1ccccc1OCCOC(=O)Nc1ccccc1 | i | 1.8
O=C1C(Cl)=C(NC(=O)c2ccccc2)C(=O)C(Cl)=C1NC(=O)c1ccccc1 | i | -0.04
CCN(CC)C(=O)C1=C(C)Nc2ncnn2C1c1cccnc1 (configuration not stated) | i | -0.04
COc1ccc2c(c1)C(C)CC(C)(C)N2C(=O)NC1CCCCC1 (configuration not stated) | i | 0.51
CCCn1c(C)nnc1SCC(=O)NC1CCCCC1 | i | -0.02
COc1ccc(N(CC(=O)NCc2ccc(F)cc2)C(=O)c2snc(C(N)=O)c2N)cc1OC | i | 0.96
Cc1onc(-c2c(Cl)cccc2Cl)c1C(=O)NCc1ccco1 | i | 1.2
COc1ccccc1OCC(=O)Nc1ccc(Cl)cc1 | i | 1.3
O=C(Cc1ccc(Cl)cc1)Nc1ncc([N+](=O)[O-])s1 | i | 1.5
Cc1ccccc1CC(=O)Nc1ccc2c(C)cc(=O)oc2c1 | i | 0.17
CC(C)C(C)NC(=O)COc1ccc(Sc2ccc(OCC(=O)NC(C)C(C)C)cc2)cc1 (configuration not stated) | i | 0.42
Cc1cc(C(=O)NCCCN2CCN(C3CCCCC3)CC2)n(-c2ccccc2)n1 | i | 1.2
CN1C(=O)c2cccc3c(S(=O)(=O)NCc4ccco4)ccc1c23 | i | 0.09
Cc1ccc2c(c1)c1c3n2CCN(CC(N)=O)C3CCC1 (configuration not stated) | i | 1.3
CC(=O)N1CCN(Cc2nc3cc(NC(=O)COc4ccccc4)ccc3n2C)CC1 | i | -0.72
O=C(CCNC(=O)c1ccccc1Cl)Nc1cccc(C(F)(F)F)c1 | i | -0.02
CCc1cccc(C)c1NC(=O)C1CN(S(=O)(=O)c2ccccc2)CCN1S(=O)(=O)c1ccccc1 (configuration not stated) | i | 0.04
COc1cc(-c2nnc(COc3ccc4cc(Br)ccc4c3)o2)cc(OC)c1OC | i | -0.5
O=C(/C=C/c1cccs1)N1CCC2(CC1)Oc1ccc(Cl)cc1C(=O)C21CC(c2ccccc2)=NO1 (configuration not stated) | i | -0.63
COc1ccc(Br)cc1CNC(=O)C1CCCN(S(=O)(=O)N2CC(C)CC(C)C2)C1 (configuration not stated) | i | 1.4
CCOc1ccc(C(=O)CN2CCN(S(=O)(=O)c3ccc(Cl)cc3)CC2)cc1 | i | 0.17
O=C(O)CCCCCn1c(O)c(C=C2N=c3ccccc3=N2)sc1=S | i | -1.5
Nc1ccnn1Cc1cccnc1 | i | -1.5
CCOc1cccc2cc(C(=O)NCc3ccc(Cl)cc3)c(=N)oc12 | i | 1.1
O=C(CNCc1ccc(Cl)cc1)Nc1ccc2c(c1)OCCO2 | i | -2.7
O=[N+]([O-])c1ccccc1S(=O)(=O)Nc1cccc(-c2ccc3nncn3n2)c1 | i | -0.37
COc1cc(NC(=O)C2=C(N3CCOCC3)/C(=C/c3ccc(Cl)cc3)CC2)cc(OC)c1OC | i | 1.6
Cc1cc(C)nc(/N=C(\NC(=O)C(C)(C)C)Nc2ccc(F)cc2)n1 | i | 0.38
c1csc(CN2CCOCC2)c1 | i | 0.03
CCOc1ccc(NC(=O)CSc2nc(=O)n(Cc3cccnc3)c3c2CCC3)cc1 | i | 2
O=C(COC(=O)c1ncc(Cl)c(Cl)c1Cl)NCCc1ccccc1 | i | 3
COc1cccc(-c2nn(-c3ccccc3)cc2CN(C)Cc2c(C)nc3ccccn23)c1 | i | 0.05
O=C(NCc1c(Cl)cccc1Oc1ccccc1)c1ccccc1 | i | -1.8
COc1ccc(C)cc1S(=O)(=O)NCCN1CCOCC1 | i | -1
COCCNC(=O)C(c1ccccc1)N(C(=O)Cn1nnc2ccccc21)c1cccnc1 (configuration not stated) | i | -1.2
COc1ccc(C2(CCN)CC(C)N(C)CC2C)cc1 (configuration not stated) | i | -0.98
COc1cc(NC(=O)c2nn(C)c3c2CS(=O)(=O)c2ccccc2-3)cc(OC)c1 | i | 0.56
COc1cccc(CN2CCNC(=O)C2CC(=O)N(C)CCC2CCOCC2)c1 (configuration not stated) | i | 1.3
CN1CCN(C(=O)/C(=C/c2ccc(F)cc2)c2ccsc2)CC1 | i | -1.6
COc1ccc(CNC(=O)COc2cc(O)c3c(c2)OC(C)(C)CC3=O)cc1 | i | -1.3
CN1C(=O)C(C)(C)c2cc(S(=O)(=O)N3CCC(C(=O)NCc4ccc(F)cc4)CC3)ccc21 | i | 0.16

Going on with the list.
SMILES | KCNQ2 inh | KCNQ2 inh baseline
CCOC(=O)C1CCN(S(=O)(=O)c2ccc(OC)c(Cl)c2)CC1 | i | 2.5
O=C(CN1C(=O)C2CC=CCC2C1=O)Nc1nccs1 (configuration not stated) | i | 0.86
Cc1ccc(S(=O)(=O)Oc2ccccc2/C=N/NC(=O)c2c(Cl)cnn2C)cc1 | -6* | 0.28*
CS(=O)(=O)N(CC(=O)NCCSc1ccccc1)c1ccc2c(c1)OCO2 | i | 0.13
O=C(NC12CC3CC(CC(C3)C1)C2)N(Cc1ccccc1)Cc1ccncc1 | -11* | -0.37*
O=C(C1CCC(CNc2c(N3CCCCC3)c(=O)c2=O)CC1)N1CCc2ccccc2C1 (configuration not stated) | i | -0.66
O=C(NCCc1ccc(F)cc1)Nc1ccc2c(c1)OCO2 | i | -0.31
COC(=O)c1ccc(N2C(=O)CC(NCc3ccccc3)C2=O)cc1 (configuration not stated) | i | 0.94
O=C(CSc1ccc(Br)cc1)N1CCOCC1 | i | 1.4
COc1ccc(N2CCN(C(=S)Nc3ccccc3OC)CC2)cc1 | i | 0.38
Cc1cc(=O)n2nc(N3CCCC3C(=O)NCc3ccccn3)sc2n1 (configuration not stated) | i | -0.12
O=C(COC(=O)c1nc(-c2ccccc2)n(-c2cccc(C(F)(F)F)c2)n1)NCc1cccs1 | i | 0.02
CC(=O)c1ccc(OCc2cc(C(=O)N3CCC[C@H]3CO)no2)cc1 | i | -0.14
COc1ccc(N2CCN(C(=O)c3ccc4c(c3)[nH]c(=S)n3c5ccccc5nc43)CC2)cc1 | i | 0.25
CC(=O)Nc1ccc(NC(=O)CSc2nnc(-c3cc4ccccc4o3)n2C)cc1 | i | -0.96
CC1CCN(C(C(=O)O)c2ccccc2)CC1 (configuration not stated) | i | 0.68
CCCc1n[nH]c2c1/C(=N/O)CC(c1ccccc1)C2 (configuration not stated) | i | 1.4
CSCCC(NC(=O)c1ccc(Cl)cc1)C(=O)OCC(=O)Nc1cc(Cl)ccc1C#N (configuration not stated) | i | 1.3
COc1ccccc1C(=O)C1CCCN(C(=O)CCC(=O)c2ccccc2)C1 (configuration not stated) | i | 0.49

An excerpt from above in order of their number in KCNQ2 inh baseline, ascending.
Molecule | KCNQ2 inh | KCNQ2 inh baseline
COc1ccccc1C(=O)C1CCCN(C(=O)CCC(=O)c2ccccc2)C1 (configuration not stated) | i | 0.49
CC1CCN(C(C(=O)O)c2ccccc2)CC1 (configuration not stated) | i | 0.68
CCCc1n[nH]c2c1/C(=N/O)CC(c1ccccc1)C2 (configuration not stated) | i | 1.4

Screens: PubChem, Johns Hopkins Ion Channel Center
